# Screening data as filed in PubChem BioAssay.
# Vif TR-FRET: inhibitors of Vif binding to APOBEC3G peptide, primary screen, biochemical, TR-FRET, GST-Vif 1-94, biotin-A3G peptide, dose response retest (AID 1117319) | TR-FRET GST-Vif / biotin-A3G peptide binding; higher % means a stronger effect; test concentration not given here; strong numbers were not always called active | inhibition, %, or IC50 in µM where a hit was titrated | actives 0.57% (n = 260,000);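 active means above the screen mean plus three standard deviations and confirmed in dose response; inconclusive means results disagree or hit not tested in dose response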;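 further: Vif residues 1-94 fused to GST binding biotinylated APOBEC3G peptide 110-148; 0% = full assay without inhibitor and 100% = GST in place of GST-Vif; retest series ran down from 100 µM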
# T cruzi inh: blocks replication of Trypanosoma cruzi; T. cruzi beta-gal in NIH3T3, luminescence, 90 h; actives 1.4% (n = 300,000); inhibition, % (test concentration not listed);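 active means mean inhibition across valid replicates above about 55%, limit read from the data; inconclusive means mean below that limit but half or more replicates reach it; inactive means mean below it, under half of replicates reach it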;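 further: signal also drops with host cell toxicity which is not excluded here; 0% = plate median of DMSO wells and 100% = zero luminescence signal; higher percent means less beta-gal luminescence so fewer parasites; stock transfer was 50 nL into about 50 µL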
# Beta apoptosis: beta cell apoptosis inhibition; INS-1E cytokine-induced death, ATP luminescence, 48 h; percent of positive-control rescue, neutral wells zero; protection from apoptosis, % (test concentration not listed); actives 0.8% (n = 300,000); AID 435005;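 active means all replicates at 75% or more, or half of them and the mean; inconclusive means half reach 75% but not the mean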;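 further: 0% = cytokine-treated negative control wells and 100% = positive control rescue; higher means more ATP so stronger rescue from cytokine killing; wells of about 40 µL received 100 nL stock; the first replicate is given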
# RanGTP-Impb inh: inhibitors of RanGTP-importin-beta interaction, primary screen, biochemical, FRET, CFP-Ran, YFP-importin-beta, homogeneous | cell-free CFP-Ran/YFP-importin-beta FRET ratio | inhibition, % (concentration not given with the values) | actives 1.1% (n = 300,000);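 active means most replicates above 15%; inconclusive means exactly half above 15%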;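 further: 0% = DMSO wells and 100% = Ran loaded with GDP instead of GTP; wells of about 40 µL received 100 nL stock; the first replicate is given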
# Ecoli rRNA inh: inhibitors of bacterial rRNA selective over humanized ribosomes | E. coli WT GFP vs humanized-ribosome RFP mutants, fluorescence, 24 h; stronger effect = lower value; DMSO median 0, no signal -100 | AID 720706 | actives 1.6% (n = 350,000) | GFP signal change (wild-type ribosome), % (no concentration beside the values);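 active means significant combined selectivity score with lowered wild-type GFP, culture density cut under 30%, mutant RFP and density less affected; inactive means any of these conditions unmet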; further: one replicate is shown; some compounds called inactive have numbers as strong as hits
# MLL AF4-AF9 inh: MLL-AF4/AF9 protein interaction inhibition; actives 0.47% (n = 350,000); AlphaScreen, biotin-AF4 peptide binding to FLAG-AF9; AID 651704; inhibition, % at 10 µM; P42568;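 active means every replicate reaching a set inhibition limit, whatever the replicate mean, cut at about 25% in these data; inconclusive means mean inhibition reaches that limit but some replicates miss it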;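 further: 0% = plate neutral control median and 100% = total signal loss; the record names both 10 and 1 µM as test concentration; the first replicate is given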
# Target sequence (P42568 whole entry, looked up): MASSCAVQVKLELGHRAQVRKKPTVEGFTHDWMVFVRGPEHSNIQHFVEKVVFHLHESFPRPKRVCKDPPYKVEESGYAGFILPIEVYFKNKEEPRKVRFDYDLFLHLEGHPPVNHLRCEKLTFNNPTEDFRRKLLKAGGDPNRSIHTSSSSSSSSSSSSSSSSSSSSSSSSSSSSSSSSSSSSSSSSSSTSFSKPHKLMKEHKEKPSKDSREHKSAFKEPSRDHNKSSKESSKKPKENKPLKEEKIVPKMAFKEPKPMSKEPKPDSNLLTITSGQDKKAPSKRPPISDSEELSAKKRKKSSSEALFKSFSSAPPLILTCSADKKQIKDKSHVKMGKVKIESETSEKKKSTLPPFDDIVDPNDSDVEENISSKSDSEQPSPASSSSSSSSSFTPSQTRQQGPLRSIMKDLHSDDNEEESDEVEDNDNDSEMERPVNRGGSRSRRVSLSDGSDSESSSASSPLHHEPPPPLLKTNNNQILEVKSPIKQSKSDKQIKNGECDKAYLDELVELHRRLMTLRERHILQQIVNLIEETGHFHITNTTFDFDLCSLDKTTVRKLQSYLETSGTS
# Calb FLC: affects C. albicans growth with fluconazole; C. albicans CaCi-2 (fluconazole-resistant clinical isolate) + fluconazole, Alamar Blue growth, 48 h; growth inhibition, % (test concentration not listed); actives 0.57% (n = 300,000);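 active means most replicates above 75%; inconclusive means exactly half above 75%; inactive means most below 75%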;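 further: all wells also contain fluconazole at 8 µg/ml as a sub-toxic cotreatment; 0% = median of DMSO wells and 100% = median of geldanamycin control wells; wells of about 8 µL received 7.5 nL stock; the first replicate is given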
# Bfl-1 A1 inh: inhibitors of the anti-apoptotic protein A1, read as caspase activation | MEF A1-2A-BIM cells, Caspase-Glo 3/7 luminescence, 3 h; percent of clofoctol response, vehicle zero | actives 0.066% (n = 330,000) | caspase activation, % (test concentration not listed);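 active means over half of replicate activation scores above 10%, or exactly half above 10 with the replicate mean above 10; inconclusive means replicate mean below 10 yet half the replicates above 10; inactive means over half of replicates below 10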;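 further: wells of about 30 µL received 50 nL stock; many hits fall short of the cut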
# Ecoli rRNA inh OD600: further read-out of Ecoli rRNA inh, marked with its call; OD600 change, %; measured here: OD600 growth;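 optical density of the mix in the first replicate; 0 = DMSO median and -100 = no signal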
# Ecoli rRNA inh RFP: further read-out of Ecoli rRNA inh, marked with its call; RFP signal change, %; measured here: RFP humanized mutant strains;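 first replicate; 0 = DMSO median and -100 = no signal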
# * marks the source's active call; other numbers are inactive results; ? = inconclusive; / = not tested or not shown. Only part of the results is shown; count on the stated rates, not on these rows.
SMILES,Vif TR-FRET,T cruzi inh,Beta apoptosis,RanGTP-Impb inh,Ecoli rRNA inh,Ecoli rRNA inh OD600,Ecoli rRNA inh RFP,MLL AF4-AF9 inh,Calb FLC,Bfl-1 A1 inh
C=C(C)Cn1c(CCCNC(=O)CCC)nc2ccccc21,1%,-8,2,-1.7,/,/,/,/,-12,-0.8
O=C(/C=C/c1ccc(Br)o1)OCc1nc2ccsc2c(=O)[nH]1,/,-10,/,6.9,3,7,2.0,/,0,0.5
Cc1[nH]nc2c1C1(CCOCC1)C(C#N)=C(N)O2,-1%,-3,6,1.1,11,12,-5.3,-17,45,0.0
CCCN(C(=O)COc1ccc(C(C)=O)cc1OC)C1CCS(=O)(=O)C1 (stereo unspecified),0%,/,3,/,8,10,-0.8,-0.8,/,-0.1
CSCC[C@H](NC(=O)[C@@H]1CSC2c3ccccc3C(=O)N21)C(=O)N1CCC[C@H]1CO (stereo partly specified),/,-15,-3,2.0,/,/,/,-0.4,-3,-0.6
COc1ccc(OC)c(/C=C/C(=O)Nc2ccc3c(c2)CCC3)c1,3%,36,0,-2.8,-11,-2,-6.5,-7.1,-14,-1.0
COC(=O)[C@H](CCSC)NC(=O)NC1CCN(Cc2ccccc2)CC1,-8%,5,-4,0.1,/,/,/,/,-3,0.8
O=C(CSc1nc2ccccc2o1)Nc1nc(-c2ccccc2)c(-c2ccccc2)s1,/,10,-2,1.0,11,12,0.7,0.9,-4,0.2
COc1cc(C(c2c(O)cc(C)[nH]c2=O)c2c(O)cc(C)[nH]c2=O)ccc1O,-1%,-7,-8,-0.5,10,18,-2.8,1.2,0,0.8
O=C(N1CCN(c2ncccn2)CC1)C12CC3CC(CC(C3)C1)C2,/,5,/,-0.3,/,/,/,0.3,-2,0.5
CCOCCCNC(=O)C(=O)NCCCOCC,14%,0,-4,5.6,/,/,/,/,3,-0.2
O=C(Nc1ccc(Cl)c(Cl)c1)Nc1ccccc1NS(=O)(=O)c1cccs1,2%,-20,31,-1.2,-60,-83,-23,-0.2,31,-0.5
COC(=O)c1ccccc1NC(=O)CN1CCCCCC1,/,-21,/,0.4,-3,2,-2.1,-1.3,-1,0.1
COC(=O)c1[nH]c2ccc(F)cc2c1NC(=O)CCN1CC(C)OC(C)C1 (stereo unspecified),2%,1,3,0.9,/,/,/,/,20,0.3
CCOc1ccc(C(=O)NCC(=O)N2CCC(C)CC2)cc1OCC,0%,3,0,0.9,0,0,-1.6,2.5,-12,2.8
N#Cc1ccccc1OCCOCCNC1CCCC1,2%,5,-3,1.5,0,4,-0.9,-2.7,-25,1.3
CCN(CC)c1ccc(C(=O)O)cc1,?,-1,-1,6.5,0,-5,-4.0,-0.7,5,0.6
COC(=O)[C@]1(Cc2ccccc2)N[C@H](c2ccc(-c3ccc(F)cc3)cc2)[C@@H]2C(=O)N(C)C(=O)[C@@H]21,/,14,9,-6.0,0,-1,-5.7,6.0,-6,0.2
COc1ccc(CCN(C)C/C=C/c2ccccc2[N+](=O)[O-])cc1OC,/,43,-1,2.2,-2,-4,5.3,5.8,-5,1.3
CC(C)[C@H](NC(=O)c1ccccc1F)C(=O)Nc1ccc(F)c(F)c1,0%,7,-12,?,15,16,4.4,-1.4,-9,-1.2
O=C(CN1CCN(c2ccccn2)CC1)Nc1cccc(Br)c1,-5%,11,-7,3.9,-23,-21,-2.9,-19,0,0.2
CC(C)C(=O)NC(=S)Nc1ccc(S(=O)(=O)Nc2nccs2)cc1,/,-17,-3,1.7,6,0,0.3,-0.3,-4,0.4
O=C(CSc1ccccc1)Nc1ccc2c(c1)C(=O)NC2=O,/,-28,-1,3.5,-9,6,-0.8,0.5,-8,-0.1
CCOP(=O)(OCC)/C(C#N)=C/c1cc(OC)ccc1OC,7%,-12,-9,1.2,15,10,2.2,-0.9,9,-0.7
CCCC(=O)Nc1ccc2nn(-c3ccc(OC)cc3)nc2c1,-3%,7,/,-1.2,-3,4,-1.4,0.7,24,-3.0
O=C(NCC1CCCCC1)c1cccnc1Cl,/,4,-2,4.5,5,7,0.2,-4.0,1,-0.6
CC1=C(C(=O)Nc2ccc(C)cc2C)C(c2ccc(C)o2)NC(=S)N1 (stereo unspecified),-5%,4,-3,0.2,/,/,/,/,-3,0.5
CCCC(=O)N(c1ccc2oc(C)c(C(C)=O)c2c1)S(=O)(=O)c1ccc(C)c([N+](=O)[O-])c1,/,-38,-12,0.8,/,/,/,/,-8,1.1

# An excerpt of these results, with bars between the fields:
canonical_smiles | Vif TR-FRET | T cruzi inh | Beta apoptosis | RanGTP-Impb inh | Ecoli rRNA inh | Ecoli rRNA inh OD600 | Ecoli rRNA inh RFP | MLL AF4-AF9 inh | Calb FLC | Bfl-1 A1 inh
O=C(N1CCN(c2ncccn2)CC1)C12CC3CC(CC(C3)C1)C2 | / | 5 | / | -0.3 | / | / | / | 0.3 | -2 | 0.5
CCOCCCNC(=O)C(=O)NCCCOCC | 14% | 0 | -4 | 5.6 | / | / | / | / | 3 | -0.2
O=C(Nc1ccc(Cl)c(Cl)c1)Nc1ccccc1NS(=O)(=O)c1cccs1 | 2% | -20 | 31 | -1.2 | -60 | -83 | -23 | -0.2 | 31 | -0.5
COC(=O)c1ccccc1NC(=O)CN1CCCCCC1 | / | -21 | / | 0.4 | -3 | 2 | -2.1 | -1.3 | -1 | 0.1
COC(=O)c1[nH]c2ccc(F)cc2c1NC(=O)CCN1CC(C)OC(C)C1 (stereo unspecified) | 2% | 1 | 3 | 0.9 | / | / | / | / | 20 | 0.3
CCOc1ccc(C(=O)NCC(=O)N2CCC(C)CC2)cc1OCC | 0% | 3 | 0 | 0.9 | 0 | 0 | -1.6 | 2.5 | -12 | 2.8
N#Cc1ccccc1OCCOCCNC1CCCC1 | 2% | 5 | -3 | 1.5 | 0 | 4 | -0.9 | -2.7 | -25 | 1.3
CCN(CC)c1ccc(C(=O)O)cc1 | ? | -1 | -1 | 6.5 | 0 | -5 | -4.0 | -0.7 | 5 | 0.6
COC(=O)[C@]1(Cc2ccccc2)N[C@H](c2ccc(-c3ccc(F)cc3)cc2)[C@@H]2C(=O)N(C)C(=O)[C@@H]21 | / | 14 | 9 | -6.0 | 0 | -1 | -5.7 | 6.0 | -6 | 0.2
COc1ccc(CCN(C)C/C=C/c2ccccc2[N+](=O)[O-])cc1OC | / | 43 | -1 | 2.2 | -2 | -4 | 5.3 | 5.8 | -5 | 1.3
CC(C)[C@H](NC(=O)c1ccccc1F)C(=O)Nc1ccc(F)c(F)c1 | 0% | 7 | -12 | ? | 15 | 16 | 4.4 | -1.4 | -9 | -1.2
O=C(CN1CCN(c2ccccn2)CC1)Nc1cccc(Br)c1 | -5% | 11 | -7 | 3.9 | -23 | -21 | -2.9 | -19 | 0 | 0.2
CC(C)C(=O)NC(=S)Nc1ccc(S(=O)(=O)Nc2nccs2)cc1 | / | -17 | -3 | 1.7 | 6 | 0 | 0.3 | -0.3 | -4 | 0.4
O=C(CSc1ccccc1)Nc1ccc2c(c1)C(=O)NC2=O | / | -28 | -1 | 3.5 | -9 | 6 | -0.8 | 0.5 | -8 | -0.1
CCOP(=O)(OCC)/C(C#N)=C/c1cc(OC)ccc1OC | 7% | -12 | -9 | 1.2 | 15 | 10 | 2.2 | -0.9 | 9 | -0.7
CCCC(=O)Nc1ccc2nn(-c3ccc(OC)cc3)nc2c1 | -3% | 7 | / | -1.2 | -3 | 4 | -1.4 | 0.7 | 24 | -3.0
